Screening results: PubChem BioAssay, National Center for Advancing Translational Sciences (NCATS)
Bst PK mod: Pyruvate Kinase; partly purified Bacillus stearothermophilus pyruvate kinase, luminescence ATP production; ribose 5-phosphate activator present at AC10; Potency, µM; 51,000 tested, 1.2% active; in the data active means potency below about 11 µM; inconclusive means mostly about 12 µM to 25 µM; inactive means weaker than that;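 the screen sought inhibitors and activators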;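 note: potency is the fitted concentration of half-maximal effect; scaled between full activation by ribose 5 phosphate and full inhibition by luteolin; about four in five hits inhibit and the cells do not say which; series up to 57 µM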
YjeE inh: qHTS Assay for Inhibitors of YjeE. tRNA threonylcarbamoyladenosine biosynthesis protein TsaE (Escherichia coli (strain …. purified YjeE, fluorescence polarisation of a bound ADP probe. Potency, µM. 71,000 tested, 0.05% active. AID 605, 2007; active = well fitted falling curve; inconclusive = weaker or top-dose-only fall, or a rising curve; inactive = flat or poorly fitted curve;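 note: top concentration of the series not given in the record; excess ADP was the control for the full effect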
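Purified YjeE (10 uM) with BODIPY Texas Red-labeled ADP probe (2 uM); compounds pin-transferred, 15 min at room temperature. Binding inhibition read as decreased fluorescence polarization; ADP titration as control.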
* hit, by the source's call; i = inactive; ? = inconclusive; / = not tested or not shown.

structure | Bst PK mod | YjeE inh
COc1ccc2c(c1)c(CCN1C(=O)c3ccccc3C1=O)cn2C(=O)c1ccco1 | / | i
CC1=C(C(=O)Nc2ccccc2)C(c2ccc(C)o2)N2C(=O)CSC2=N1 (stereo not given) | / | i
Cc1cnc(NC(=O)CN2C(=O)C3CC=CCC3C2=O)s1 (stereo not given) | >57 | i
COC(=O)CNc1nc(OC)nc(N(C)C)n1 | >57 | i
O=c1c(-c2ccc(F)cc2)nc2cnc(Oc3cccc(Cl)c3)nc2n1C[C@H]1CCCO1 | / | i
Cc1nn(C)cc1CNC(=O)c1cc2n(n1)C(C(F)(F)F)CC(c1cccs1)N2 (stereo not given) | >57 | i
CN(C1=NC(=O)C(CC(=O)Nc2ccc(Br)cc2)S1)c1ccc(O)cc1 (stereo not given) | >57 | i
Cc1oc(-c2ccc(Cl)cc2)nc1CS(=O)CC(=O)NCCCN(C)C1CCCCC1 (stereo not given) | / | i
O=C(NC1CCCCCCC1)c1cnccn1 | / | i
CCC(C)(C)NC(=O)CN(C(=O)CNS(=O)(=O)c1ccccc1)c1ccccc1 | >57 | i
COc1ccc(OC)c(C(=O)c2ccc(C(=O)N3CCCCC3)cc2)c1 | / | i
CCCC[C@@H]1C[C@H]1C(NC(=O)c1ccccc1)c1ccc(-c2ccccc2)cc1 (stereo not given in full) | / | i
CCCc1nc(SCC(N)=O)[nH]c(=O)c1CC | >57 | i
COc1ccc(OC)c(NC(=O)CSc2nnc(N)s2)c1 | >57 | i
COc1ccc(-c2coc3cc(O[C@@H]4O[C@@H](CO)[C@@H](O)[C@@H](O)[C@H]4O)cc(O)c3c2=O)cc1 | / | i
O=C(NC(Cc1ccccc1)C(=O)O)c1ccc(S(=O)(=O)N2CCOCC2)cc1 (stereo not given) | >57 | i
Cc1nc(NC(=O)c2ccc(Br)s2)sc1C(=O)N(C)C | / | i
COCCCNC(=O)Cn1nnc(-c2ccc(NC(=O)c3ccc(F)cc3)cc2)n1 | >57 | i
Cc1nc2cc(S(=O)(=O)C(F)(F)F)ccc2s1 | >57 | i
O=C(NCc1cccnc1)c1noc2c1CCCC2 | >57 | i
COc1ccc(NC(=O)N2CC[C@@]3(CCCN(C(=O)c4ccco4)C3)C2)cc1 | / | i
c1ccc(C2Nc3ccccc3-c3nc4ccccc4n32)nc1 (stereo not given) | ? | /
CCC(C)NC(=O)c1cc(CC(C)C)on1 (stereo not given) | / | i
COc1ccc2[nH]c(I)c(CCNC(C)=O)c2c1 | / | i
CCOC(=O)N1CCC2(CC1)C(C#N)=C(N)Oc1c2sc2nc(C)cc(C)c12 | >57 | i
CCOC(=O)C1=C(NC#N)OC(C)=C(C)C1c1ccc(O)cc1 (stereo not given) | >57 | i
COC(=O)c1c(N)sc(C(=O)N2CCOCC2)c1C | >57 | i
Cc1ccc(-c2nc(C)sc2CC(=O)NCc2ccco2)cc1 | >57 | i
CN(CCc1ccccn1)c1ncnc2[nH]ncc12 | >57 | i
Cc1ccc(-c2nc(N)n(C(=O)Cc3ccccc3)n2)cc1 | >57 | i

One compound at a time, as listed above:
Shown for `COC(=O)c1c(N)sc(C(=O)N2CCOCC2)c1C` → Bst PK mod: >57; YjeE inh: i
Shown for `CCC(C)(C)NC(=O)CN(C(=O)CNS(=O)(=O)c1ccccc1)c1ccccc1` → Bst PK mod: >57; YjeE inh: i

By substructure, the entries above containing a furan ring, fused or not (four)
structure | Bst PK mod | YjeE inh
COc1ccc2c(c1)c(CCN1C(=O)c3ccccc3C1=O)cn2C(=O)c1ccco1 | / | i
CC1=C(C(=O)Nc2ccccc2)C(c2ccc(C)o2)N2C(=O)CSC2=N1 (stereo not given) | / | i
COc1ccc(NC(=O)N2CC[C@@]3(CCCN(C(=O)c4ccco4)C3)C2)cc1 | / | i
Cc1ccc(-c2nc(C)sc2CC(=O)NCc2ccco2)cc1 | >57 | i

Next structures follow:
structure | Bst PK mod | YjeE inh
O=C(O)CN1C(=O)CCS(=O)c2ccccc21 (stereo not given) | / | i
O=C(Nc1cccc(F)c1)N1CCCC2(CCNCC2)C1 | / | i
CC(C)(C)OC(=O)NCC(=O)NCC(=O)OCc1ccccc1 | >57 | i
Fc1cccc(CSc2ncnc3c2ncn3[C@H]2CCCS2)c1 | / | i
O=C1CCSc2cccc3cccc(c23)N1 | / | i
CCC(=O)O[C@@H]1CC(=O)O[C@H](C)CC=CC=C[C@@H](O)[C@H](C)C[C@H](CC=O)[C@H](O[C@H]2O[C@H](C)[C@@H](O[C@H]3C[C@@](C)(O)[C@@H](OC(=O)CC)[C@H](C)O3)[C@H](N(C)C)[C@H]2O)[C@H]1OC | >25.6 | /
Cc1oc2nc(SCC(=O)NC3CCCCC3)nc(N)c2c1C | >57 | i
CCOC(=O)C1C(=O)NCC2CCCC21 (stereo not given) | >57 | i
Oc1ccc2nc(Cc3ccccc3)[nH]c2c1 | >57 | i
O=C(CN(c1ccccc1)S(=O)(=O)c1ccccc1)N1CCN(Cc2ccc3c(c2)OCO3)CC1 | / | i
CC1(C)CC(=O)C(C(c2ccco2)C2C(=O)CC(C)(C)CC2=O)C(=O)C1 | >57 | i
COC(=O)c1ccc(NC(=O)CSc2nnc(CNc3ccc(OC)cc3)n2C)cc1 | / | i
O=C(NCC1COc2ccccc2O1)C1CCCN(S(=O)(=O)c2cnc[nH]2)C1 (stereo not given) | / | i
CCOc1ccc(OCc2ccc(C(=O)Nc3ccc(Cl)cn3)o2)cc1 | >57 | i
O=C(O)c1cccc(S(=O)(=O)NCc2cccs2)c1 | >57 | i
Cc1ccccc1CSCC(=O)NC(=O)NC(C)(C)C | >57 | i
Cc1cc(NC(=O)CSc2nc3ccccc3[nH]2)no1 | >57 | i
Cc1ccc(Cn2ccc(NC(=O)c3c(-c4ccccc4Cl)noc3C)n2)cc1 | >57 | i
COC(=O)[C@@]1(C)C=C[C@@H](Cc2ccccc2)N1C(=O)c1ccccc1 | / | i
CCc1nnc(NC(=O)CSc2nnc(COc3ccccc3)n2Cc2ccccc2)s1 | >57 | i
CCCS(=O)(=O)NCc1cn2c(C)csc2n1 | / | i
COC(=O)[C@@]1(Cc2ccccc2)[C@@H]2[C@@H](CC(=O)[C@H]2CC(=O)C(=O)N(C)C)CN1C(=O)c1ccccc1 | / | i
O=C(CSc1nc2c(c(=O)n1-c1ccc(Cl)cc1)SCC2)Nc1ccc2c(c1)OCCO2 | / | i
Cn1nnc(NC(=O)c2ccco2)n1 | >57 | i
CC(C)(C)NC[C@H](O)COc1nsnc1N1CCOCC1 | >25.6 | i
COc1ccc(OC)c(C2C(C(=O)Nc3ccccc3OC)=C(C)Nc3nc(CCCO)nn32)c1 (stereo not given) | / | i
CC1Cc2ccccc2N1C(=O)CCS(=O)(=O)c1cccs1 (stereo not given) | >57 | i
O=C1NCC(COCC2CC=CCC2)O1 (stereo not given) | >25.6 | /
COC(=O)C1C(=O)N2CCCSC2=C(C#N)C1c1cccs1 (stereo not given) | >57 | i
O=c1[nH]n(CC2COC3(CCCCC3)O2)c(=O)c2ccccc12 (stereo not given) | >57 | i
COc1ccc(C2C3=C(N=C4SCC(=O)N42)c2ccccc2CC3)cc1OC (stereo not given) | >57 | i
O=C(O)C1CCCN(S(=O)(=O)c2ccc(Cl)s2)C1 (stereo not given) | / | i
CCOC(=O)C(Cc1cc(C(C)=O)ccc1OC(C)C)C(=O)OCC | >57 | i
CC(C)CNC(=O)c1cccc(C(=O)NCC(C)C)c1 | >57 | i
O=C(c1cccc(F)c1)N1CCC2(CC1)CCN(c1ncccn1)CC2 | / | i
Nc1cc(=O)[nH]c(SCC(=O)NCC2CCCO2)n1 (stereo not given) | >57 | i
C=CCn1c(SCCC#N)nnc1-c1ccncc1 | >57 | i
c1ccc(N2CCN(c3cnccn3)CC2)nc1 | >57 | i
Cc1ccc2[nH]c(-c3ccccc3)c(CN3CCN(C)CC3)c(=O)c2c1 | / | i
COc1ccc(C2SCC(=O)N2c2c(C)n(C)n(-c3ccccc3)c2=O)c(OC)c1 (stereo not given) | >57 | i
N#CCCN(C(=O)COC(=O)c1ccc2c(c1)NC(=O)CS2)c1ccc2c(c1)OCCO2 | >57 | i
CCCCNC(=O)CS(=O)Cc1nc(-c2cccc(C)c2)oc1C (stereo not given) | / | i
Cc1noc(C)c1-c1cncnc1NCc1cccnc1 | / | i
CCC1Oc2ccccc2N(CC(=O)Nc2ccc(OC)cc2OC)C1=O (stereo not given) | >57 | i
COc1ccc(Cl)cc1C(=O)NCC(C)C | / | i
CCN1C(=S)SC(=O)C1=C1C=C(C)N(CCOC)C(C)=C1 | / | i
Cc1cc(C(=O)NCc2ccccc2Br)no1 | ? | i
COc1ccccc1NC(=O)CSc1nnnn1Cc1ccccc1 | >57 | i
O=C(c1ccccc1)N1CCN(CC(O)COCC2CC=CCC2)CC1 (stereo not given) | >57 | i
Cc1cc(C)n(C/C=C/Cn2nc(C)cc2C)n1 | >57 | i
O=C(NCCCc1ccccc1)c1ccc(Br)o1 | >57 | i
O=C(CSc1nnc(-c2ccco2)n1-c1ccccc1)N1CCOCC1 | >57 | i
O=C(O)Cn1nc(-c2ccccc2)c2ccccc2c1=O | >57 | i
CCOC(=O)N1CCN(CC(=O)Nc2cc3c(cc2C(C)=O)OCO3)CC1 | / | i
CCOC(=O)c1nc(N)c(C(=O)OCC)[nH]1 | >25.6 | /
O=C(Nn1cnnc1)c1ccncc1 | >57 | i
O=C(Nc1ccc2c(c1)CCC2)c1cnccn1 | / | i
O=C(N1CCOCC1)N1CCC(NC(=O)C23CC4CC(CC(C4)C2)C3)CC1 | >57 | i
COC(=O)Nc1ccc(OC)c(OC)c1 | >57 | i
CCC(C)(C)n1nnnc1C(c1ccccc1F)N1CCC(C(N)=O)CC1 (stereo not given) | >57 | i

Following part:
structure | Bst PK mod | YjeE inh
Cc1ccccc1-n1c(-c2ccncc2)n[nH]c1=S | >57 | i
COC(=O)c1cc(=O)n(Cc2ccco2)c(=Nc2ccc(F)c(Cl)c2)s1 | / | i
COc1ccccc1Oc1c(C)oc2c(CN3CCN(CCO)CC3)c(O)ccc2c1=O | >57 | i
COC(=O)[C@H](CCSC)NC(=O)NCc1cccs1 | >57 | i
CCc1nnc(NC(=O)C2CCCN2C(=O)Nc2ccccc2OC)s1 (stereo not given) | >57 | i
Cn1nc(C(=O)OCCN2C(=O)c3ccccc3C2=O)c2ccccc2c1=O | >57 | i
COC(=O)c1cc2ccsc2n1CC(=O)NCC1CCCO1 (stereo not given) | >57 | i
CCCCCn1c(CN2CCN(C(=O)OCC)CC2)nc2c1c(=O)n(C)c(=O)n2C | >57 | i
O=C(COC(=O)C1(c2ccc(F)cc2)CCCC1)N1CCOCC1 | >57 | i
Nc1ccc[n+](Cc2ccccn2)c1 | >57 | i
CCCCn1c(CNC(=O)c2cccs2)nc2ccccc21 | / | i
CS(=O)(=O)N1CCC2(CCCN(C(=O)Nc3cccc(C#N)c3)C2)CC1 | / | i
Cc1nc(-c2cccc(-c3noc(C)n3)c2)no1 | >57 | i
O=C(Nc1c(C(=O)N2CCOCC2)cnn1-c1ccccc1)c1ccccc1 | / | i
CSC(=O)CC(=O)NC(=O)c1ccccc1 | >57 | i
COc1ccccc1N1C(=O)C2CC=CC(C)C2C1=O (stereo not given) | / | i
CCC(C)[C@H](NC(=O)N1CCCC1)C(=O)O (stereo not given in full) | >57 | i
COc1ccc2cc(CCC(C)=O)ccc2c1 | / | i
C=CCn1c(=O)c(C(=O)NCCNCC)c(O)c2ccccc21 | >57 | i
CCOC(=O)N1CCC(N2Cc3cccc(C(=O)Nc4ccc(OC)c(OC)c4)c3C2=O)CC1 | / | i
COCCNc1c(-c2ccc(O)cc2)nc2ccc(Cl)cn12 | >57 | i
COc1cc2c(cc1OC)CN(C(=O)CCCN1C(=O)c3ccccc3C1=O)CC2 | >57 | i
Cn1c(SC/C=C/c2ccccc2)nnc1-c1cnccn1 | >57 | i
NC(=O)C1CCN(c2nc(-c3ccccc3)nc3c2oc2ccccc23)CC1 | >57 | i
O=C(CCn1c(=O)c2sccc2n(Cc2cc(=O)n3ccccc3n2)c1=O)NCc1ccco1 | >57 | i
CC1=C(C(=O)OCc2ccc3c(c2)OCO3)C(c2ccccc2)NC(=O)N1 (stereo not given) | / | i
COC(=O)c1c(NC(=O)CN2CCN(c3ccccc3OC)CC2)c2c(C)cccc2n1C | >57 | i
CCCC(=O)C1=C(O)C(C(=O)OC)C(C)(C)CC1=Nc1ccncc1 (stereo not given) | / | i
N[C@@H]1CONC1=O | / | i
O=C(NCc1ccccn1)c1cn(CCc2ccccc2)nn1 | >57 | i
CCCN1Cc2cccc(C(N)=O)c2C1=O | >57 | i
CC(=O)c1cccc(NC(=O)c2cc3ccccn3n2)c1 | / | i
COCCn1c(=NC(=O)CSCC(=O)Nc2cc(C)on2)sc2cc(C(=O)OC)ccc21 | >57 | i
Cc1nc(N)[nH]c(=O)c1CCC(=O)OCC(C)C | >57 | i
CCCCOc1ccc(CSc2n[nH]c(C)n2)cc1 | >57 | i
Cn1nnc(NC(=O)c2ccc(C(C)(C)C)cc2)n1 | ? | i

An excerpt; count on the stated rates, not on these rows.
